Screening results as filed in PubChem BioAssay.
KCNQ2 pot: potentiators of rat KCNQ2 potassium channel. CHO-K1 KCNQ2, FluxOR thallium flux fluorescence; active compounds read high. B-score at 10 µM. 310,000 tested, 0.54% active. AID 2239;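 active = fluorescence ratio B-score at least 3 SD of library B-scores, with initial fluorescence B-score within 3 SD, cut at about 5.3 in these data; same plate scores as AID 2156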;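 also: B-score of peak minus minimum over baseline fluorescence ratio after K+ and Tl+ stimulus; positive B-score means potentiation of KCNQ2 with more thallium influx and brighter signal; only the inactives scoring about 0 or higher are listed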
Target sequence (O88943 whole entry, looked up): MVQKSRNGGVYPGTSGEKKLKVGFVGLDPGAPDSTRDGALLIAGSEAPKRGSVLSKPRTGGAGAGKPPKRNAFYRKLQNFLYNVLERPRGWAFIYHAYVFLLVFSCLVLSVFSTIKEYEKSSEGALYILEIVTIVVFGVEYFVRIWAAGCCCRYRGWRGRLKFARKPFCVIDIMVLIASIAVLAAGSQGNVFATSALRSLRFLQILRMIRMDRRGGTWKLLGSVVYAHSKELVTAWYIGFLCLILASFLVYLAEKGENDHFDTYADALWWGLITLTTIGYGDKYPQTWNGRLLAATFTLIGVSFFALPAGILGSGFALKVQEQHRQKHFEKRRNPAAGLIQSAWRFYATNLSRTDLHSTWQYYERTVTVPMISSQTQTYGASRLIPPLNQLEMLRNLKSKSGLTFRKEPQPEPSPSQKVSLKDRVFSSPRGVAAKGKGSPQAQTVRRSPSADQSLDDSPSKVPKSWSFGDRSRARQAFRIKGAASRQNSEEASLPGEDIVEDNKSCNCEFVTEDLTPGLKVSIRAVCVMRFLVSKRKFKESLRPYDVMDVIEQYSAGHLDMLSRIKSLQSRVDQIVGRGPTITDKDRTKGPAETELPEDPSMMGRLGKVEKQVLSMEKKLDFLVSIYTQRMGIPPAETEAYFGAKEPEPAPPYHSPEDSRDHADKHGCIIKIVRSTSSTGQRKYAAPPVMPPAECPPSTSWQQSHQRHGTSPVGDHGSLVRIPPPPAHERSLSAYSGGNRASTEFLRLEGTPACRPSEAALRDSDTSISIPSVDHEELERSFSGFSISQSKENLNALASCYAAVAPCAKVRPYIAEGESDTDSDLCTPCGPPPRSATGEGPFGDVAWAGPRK
KCNQ2 pot baseline: further read-out of KCNQ2 pot, marked with its call; B-score; compound at 10 µM; measured here: initial fluorescence intensity artifact check;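 brightness before thallium and not channel activity; 0 = typical well and far values either way flag optical interference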
Numbers without * were called inactive; & = joins results of further samples.

SMILES	KCNQ2 pot	KCNQ2 pot baseline
O=C(CSc1nnc(Cn2c(=O)sc3ccccc32)n1-c1ccccc1)NCC1CCCO1 (stereo not drawn)	0.75	-0.15
CCN(c1ccccc1)S(=O)(=O)c1ccc(Cl)c(NC(=O)CN(C)C2CCN(C)CC2)c1	0.25	0.21
CCCC(=O)Nc1ccc2c(c1)nc(CCNC(=O)c1ccccc1)n2C	0.03	-0.81
O=c1c2sc3ccccc3c2[nH]c(=S)n1CCN1CCOCC1	0.3	-2
CC1CC(C)CN(Cc2nc(N)nc(Nc3ccccc3)n2)C1 (stereo not drawn)	0.04	-2.1
COc1ccccc1N1C(=O)C(Cl)=C(N2CCCC2)C1=O	1.1	-1.6
O=C(CNC(=O)N1CC(=O)Nc2ccccc21)NCCc1ccc(Cl)cc1	0.17	-2.7
CCOC(=O)c1c(NC(=O)C2CCCCC2C(=O)O)sc2c1CCCCC2 (stereo not drawn)	3.5	-0.15
Cc1cccc(NC(=S)NCCN2CCOCC2)c1	0.09	0.06
CC(NC(=O)CCCCCN1C(=O)c2ccccc2C1=O)c1ccc2c(c1)CCCC2 (stereo not drawn)	4.2	0.09
Cc1ccc2nc(-c3ccc(N4C(=O)CC(N5CCC(C(N)=O)CC5)C4=O)cc3)sc2c1 (stereo not drawn)	0.04	0.51
CCOC(=O)c1sc(=S)n(-c2cccc(OC)c2)c1N	2.1	-0.25
CN(CC(O)COc1ccccc1F)C1CCCCC1 (stereo not drawn)	0.14	-0.18
CCn1c(CNC(=O)c2ccccc2F)nnc1SCc1nc2ccccc2c(=O)[nH]1	0.7	-0.49
Cc1onc(-c2ccccc2)c1C(=O)N(C)CCc1ccccn1	0.23	-0.23
CC1=NN(c2nc(-c3ccc(C)cc3)cs2)C(=O)C1N=Nc1ccc(C(N)=O)cc1 (stereo not drawn)	0.69	0.81
COc1ccc(N2CCC(CNC(=O)Nc3cccc(OC)c3)C2)cc1 (stereo not drawn)	0.06	0.02
O=C1CCCN1CC(=O)N1CCCC(Nc2cccc(F)c2)C1 (stereo not drawn)	0.55	-0.13
CC(C)n1cc(/C(N)=N/O)c(=O)n(Cc2ccccc2)c1=O	1.3	-0.68
CCOC(=O)/N=C(/NC(=O)Nc1ccc(C(=O)OCC)cc1)OC	1.1	1.2
NC(=O)C1CCCCc2c1[nH]c1ccc(Cl)cc21 (stereo not drawn)	1.6	0.32
COc1ccc2c(c1)c1ncn(CCN3CCCCC3)c(=O)c1n2C	1.1	-0.27
CC(=O)c1cccc(NC(=O)c2cccc3ccccc23)c1	0.6	0.37
Cc1ccccc1CC1(CO)CCCN(C(=O)c2cc(Cl)ccc2F)C1 (stereo not drawn)	0.43	-2.4
CN(C)C(CNC(=O)CCNC(=O)c1ccc(Cl)cc1)c1ccco1 (stereo not drawn)	0.53	-0.49

Structures shown so far with an NH in an aromatic ring, in the order listed:
SMILES	KCNQ2 pot	KCNQ2 pot baseline
O=c1c2sc3ccccc3c2[nH]c(=S)n1CCN1CCOCC1	0.3	-2
CCn1c(CNC(=O)c2ccccc2F)nnc1SCc1nc2ccccc2c(=O)[nH]1	0.7	-0.49
NC(=O)C1CCCCc2c1[nH]c1ccc(Cl)cc21 (stereo not drawn)	1.6	0.32

Other results
SMILES	KCNQ2 pot	KCNQ2 pot baseline
O=C(O)CCC(=O)Nc1ccccc1C(=O)NC1CCCCC1	1.3	-0.67
O=C(c1ccccc1)n1ccc(-c2cnc(-c3ccccc3)s2)n1	1.4	-0.04
CC(C)Cc1nnc(NC(=O)CN2C(=O)C3CCCCC3C2=O)s1 (stereo not drawn)	1.2	-1.2
O=C(CS(=O)(=O)Cc1ccccc1)Nc1ncccn1	0.32	0.19
CCOC(Cn1cc(C)c(=O)[nH]c1=O)OCC	0.95	-1.1
COc1ccc(C2=NOC(C(=O)NCc3cccs3)C2)cc1OC (stereo not drawn)	1.3	-0.06
COc1cc(S(=O)(=O)N(C)C)ccc1F	1.1	-0.76
CC(Sc1nnc(Cc2cccs2)n1C1CCCCC1)C(=O)NCc1ccco1 (stereo not drawn)	0.07	-0.42
N#C/C(=C\c1cn[nH]c1-c1ccc(Cl)cc1)C(=O)NC1CC1	1	0
O=C(O)c1ccc(/C=C2/SC(=S)N(Cc3ccccc3)C2=O)cc1	1.4	-0.86
CCN(c1ccc(NC(=O)CSc2nnc3nc(C)cc(C)n23)cc1)C(C)C	0.89	-0.24
Nc1nc(-c2cccnc2)nn1C(=O)COc1ccccc1	0.52	-0.01
CC(C)(C)n1nc2c(c1NC(=O)c1cccs1)CS(=O)C2 (stereo not drawn)	0.21	2.6
N/C(=N\OC(=O)/C=C/c1ccccc1Cl)c1ccncc1	1.5	-1.5
CCCN1CCN(CCCNC(=O)c2ccc3nc(N4CCCCC4)sc3c2)CC1	0.12	-2
O=C(NC(Cc1ccccc1)C(=O)O)/C(=C/c1ccccc1)NC(=O)c1ccccc1 (stereo not drawn)	1.2	-0.04
CC(C)Oc1ccc(S(=O)(=O)N2CCOCC2)cc1NC(=O)CC1OC(=O)c2ccccc21 (stereo not drawn)	1	1.1
O=c1cc(-c2ccc(O)cc2)oc2ccc(O)cc12	0.54	-1.1
COc1ccc(C(=O)NC(C(=O)NCC(=O)Nc2c(C)cccc2C)C(C)C)cc1 (stereo not drawn)	2.3	1.6
O=C(NC(=S)N1CCN(C/C=C/c2ccccc2)CC1)c1c(F)cccc1F	0.04	-0.03
Cn1c(=O)c2c(ncn2CC(=O)N2CCN(C(=O)c3ccco3)CC2)n(C)c1=O	1.1	0.4
C[C@H](NC(=O)C1CC(=O)N(c2ccc3c(c2)OCCO3)C1)C(=O)NC1CCCC1 (stereo partly drawn)	0.33	0.89
CCn1c(/N=C/c2ccc(OC)cc2O)nc2ccccc21	0.52	-0.98
CCOc1ccc(C(=O)NC2CC3CCCC(C2)N3Cc2ccccc2)cc1 (stereo not drawn)	1.2	0.77
CCOC(=O)c1cccc2c(=O)c(C(=O)c3ccc(Cl)cc3)c(C(=O)OC)[nH]c12	0.07	0.09

The listing continues:
SMILES	KCNQ2 pot	KCNQ2 pot baseline
O=C(O)c1oc2ccccc2c1CSc1ccc(Cl)cc1	2.9	1.4
COc1ccc(OCCC(=O)OCC(=O)NCCC2=CCCCC2)cc1	0.29	-0.01
CCC(/C=C1\Sc2ccc(OC)cc2N1CC)=C\c1sc2ccc(OC)cc2[n+]1CCCS(=O)(=O)[O-]	1.3	-1.5
O=Cc1ccc(OCc2nnsc2Cl)cc1	0.79	-1.4
CN1C(=O)CC(N2CCN(Cc3ccc(Cl)cc3)CC2)C1=O (stereo not drawn)	0.91	-1.4
COc1ccc(OC)c2c1sc(=NC(=O)C1CC1)n2C	0.15	0.99
O=C(/C=C/c1ccccc1Cl)Nc1ccc2c(c1)C(=O)NC2=O	0.34	1.4
CC(=O)O[C@H]1CC[C@@]2(C)[C@@H](CC[C@H]3[C@@H]4CC[C@H](C(C)O)[C@@]4(C)CC(=O)[C@@H]32)C1 (stereo partly drawn)	0.09	-0.78
CCOC(=O)c1c(NC(=O)c2ccc(S(=O)(=O)N3CCOCC3)cc2)sc2c1CC(C)(C)NC2(C)C	2.7	-1.2
Cc1ccc(-n2nnc(-c3ccnc4ccccc34)n2)cc1	1.6	0.24
O=C1C2CC=C(Cl)CC2C(=O)N1c1ncn[nH]1 (stereo not drawn)	0.17	-0.93
[2H]C([2H])(CCOS(N)(=O)=O)c1ccccc1	0.39	-0.23
CN1CCN(C(=O)C2CCCCC2C(=O)O)CC1 (stereo not drawn)	0.75	-1.2
CCC(C(=O)OC)n1cnc2c(nnn2-c2ccc(C)cc2)c1=O (stereo not drawn)	1.2	-0.4
C=CCN=C1N[C@@H](c2cccc(C(F)(F)F)c2)C(C(=O)OC)=C(C)N1CC	0.76	-1.2
CN1C2=C(C#N)C(c3ccccc3)(C(F)(F)F)NC(=O)N2c2ccccc21 (stereo not drawn)	0.58	-1.1
COc1ccc(CN(CC(=O)NC2CCCC2)C(=O)CN2C(=O)COc3ccccc32)cc1	0.96	0.77
O=c1ccn(Cc2ccc(F)cc2)c2ccnc(C(F)(F)F)c12	0.04	-1.9
Cc1nc(NCC2CCCO2)[nH]c(=O)c1CCC(C)C (stereo not drawn)	0.38	1.4
O=C(CCCN1C(=O)/C(=C/c2cccs2)SC1=S)Nc1cccc(C(=O)O)c1	0.91	-2.3
CN1C(=O)NC(c2ccccc2)C2=C1CN(c1cccc(C(F)(F)F)c1)C2=O (stereo not drawn)	1.2	0.01
CCCCCc1ccc(C2=NNC(=O)CC2)cc1	1.4	-1.4
C=CCNC(=O)c1cccc(NS(=O)(=O)c2ccc(Cl)cc2)c1	0.47	-0.51
CCOc1cccc2c1OC1(C)CC2NC(=O)N1c1ccc(OC)cc1 (stereo not drawn)	0.07	0.44
CC(C)(C)C(=O)OC/C(N)=N/OC(=O)c1ccccc1	0.28	0.12

Whole records from above. Screens in order: KCNQ2 pot, KCNQ2 pot baseline
Listed for COc1ccc(OCCC(=O)OCC(=O)NCCC2=CCCCC2)cc1 = 0.29, -0.01
Listed for CCOC(=O)c1c(NC(=O)c2ccc(S(=O)(=O)N3CCOCC3)cc2)sc2c1CC(C)(C)NC2(C)C = 2.7, -1.2
Listed for Cc1ccc(-n2nnc(-c3ccnc4ccccc34)n2)cc1 = 1.6, 0.24

The listing picks up, repeating the four entries before the break.
SMILES	KCNQ2 pot	KCNQ2 pot baseline
CCCCCc1ccc(C2=NNC(=O)CC2)cc1	1.4	-1.4
C=CCNC(=O)c1cccc(NS(=O)(=O)c2ccc(Cl)cc2)c1	0.47	-0.51
CCOc1cccc2c1OC1(C)CC2NC(=O)N1c1ccc(OC)cc1 (stereo not drawn)	0.07	0.44
CC(C)(C)C(=O)OC/C(N)=N/OC(=O)c1ccccc1	0.28	0.12
CCC(=O)N(Cc1ccccc1)c1ccccn1	0.12	-0.86
CC(C)CNC(=O)c1noc2c1CCCC2	0.93	0.66
CN(C)/C=C/C(=O)/C=C/c1ccc(Cl)cc1Cl	0.26	-0.05
N#CCC(=O)Nc1ccc(C(=O)OCC(=O)NNC(=O)c2ccc(Cl)cc2)cc1	0.28	-0.81
CN(C)S(=O)(=O)c1cccc(COC(=O)C2=COCCO2)c1	2.4	-2.1
CC(C)CNC(=O)CSc1nc(-c2cccs2)cc(C(F)(F)F)n1	0.63	-0.58
Cc1c(Cl)cccc1NC(=O)CSc1nnc(C)n1-c1ccccc1	1.8	-1.2
CN1CCN(C2=NC(=O)/C(=C/c3cn[nH]c3-c3ccccc3)S2)CC1	0.69	0.89
CCN(CC)CCNCc1cc(Cl)c(OCC(=O)Nc2ccccc2)c(OC)c1	0.64	-0.04
O=C(O)c1cc(S(=O)(=O)NCC2CCCO2)ccc1Cl (stereo not drawn)	1.7	-1.2
O=C(CCCN1C(=O)/C(=C/c2ccc(F)cc2)SC1=S)NC1CCS(=O)(=O)C1 (stereo not drawn)	0.92	-0.67
O=C(CN1CCN(Cc2ccccc2)CC1)Nc1ccccc1-c1ccccc1	1.2	0.46
O=C(Oc1ccc(Cl)cc1)c1ccc2nccnc2c1	0.83	1.5
CSc1nc2cc(Cl)ccc2s1	0.33	0.65
CC(=O)NC(C)(CC(=O)c1ccccc1)c1ccccc1 (stereo not drawn)	0.97	0.08
CC(/C=N/n1c(-c2ccc(Cl)cc2)n[nH]c1=S)=C\c1ccco1	3.9	1.6
COc1cc(C)c(Cl)c(C)c1S(=O)(=O)NC1CC(C)(C)NC(C)(C)C1	2.6	-0.37
O=C(/C=N/O)Nc1ccc2sc3ccccc3c2c1	4.7	2.9
CCOC(=O)N1CCN(CCC(=O)Nc2cccc(Br)c2)CC1	0.07&1.6	-1.9&-1.9
CCOc1ccc(/C=N/NC(=O)Nc2ccccc2)cc1	1	-0.36
Cc1nc2c3cc(Cl)ccc3n(CCN3CCCCC3)c2s1	0.02	-0.03
COc1ccc(C(=O)NCC(=O)OCC(=O)N2CCN(S(=O)(=O)c3ccccc3)CC2)cc1	1.4	-0.43
CCOC(=O)c1ccc(NC(=O)COC)cc1	1.6	-0.72
Cc1cccc(NC(=S)NCc2ccco2)c1C	1.5	0.13
O=C(Nc1nnc(-c2ccc(Cl)cc2)o1)c1ccc(N2C(=O)CCC2=O)cc1	0.99	-0.35

Some of these compounds in order of the KCNQ2 pot value, highest first:
SMILES	KCNQ2 pot	KCNQ2 pot baseline
NC(=O)C1CCCCc2c1[nH]c1ccc(Cl)cc21 (stereo not drawn)	1.6	0.32
CN1C(=O)NC(c2ccccc2)C2=C1CN(c1cccc(C(F)(F)F)c1)C2=O (stereo not drawn)	1.2	0.01
O=c1ccn(Cc2ccc(F)cc2)c2ccnc(C(F)(F)F)c12	0.04	-1.9

Remaining list, next part
SMILES	KCNQ2 pot	KCNQ2 pot baseline
COc1ccc(CCNCC(C)c2ccccc2)cc1 (stereo not drawn)	0.33	0.36
NS(=O)(=O)c1ccc(NC(=O)c2cc(-c3cccs3)nc3ccccc23)cc1	1	0.42
O=C(NCCc1ccccn1)c1cccc(S(=O)(=O)N2CCCCCC2)c1	1.9	0.39
Cc1cccc(C)c1NC(=O)NC1(C(=O)N2CCCCC2)CCCCC1	0.12	-0.42
Cc1oc(C(C)(C)C)cc1C(=O)Nc1cccc(C(=O)O)c1	1.3	-3.7
Cn1c(N2CCOCC2)c(/C=N/O)c2ccccc21	1.1	-0.61
C=CCNC(=S)Nc1nc2c(cc1C(=O)OCC)CCCC2	4.3	-0.01
O=C(NCCN1CCN(c2ccccc2)CC1)Nc1ccccc1Cl	0.75	-0.1
CC(=O)N1CCN(c2ccc(NC(=S)NC(=O)c3ccccc3)cc2)CC1	0.93	1.4
CC1CC(C)CN(S(=O)(=O)c2ccc(C(=O)NCc3ccc4c(c3)OCO4)cc2)C1 (stereo not drawn)	2.1	3
Fc1cccc(CSc2nnc3ccc(-c4ccncc4)nn23)c1	1.5	-1.4
CC1(C)C2CC[C@]3(C)C(CC=C4[C@@H]5C[C@@](C)(CO)[C@@H](O)C[C@]56C[C@@H](OC6=O)[C@]43C)[C@@]2(C)CC[C@@H]1O (stereo partly drawn)	1.1	-0.89

This is a subset (hit frequency here may not be typical).
